Rce1 inh: inhibitors of yeast Ras-converting enzyme; yeast membranes, quenched prenylated peptide cleavage fluorescence; 290,000 compounds, 0.27% hits; Q03530; calls only;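 active = fall in fluorescence gain of 50% or more versus controls, with final raw signal at or below 3038400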;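 note: plate controls were neutral control wells for no effect and wells lacking membranes for full effect; tested at 10 µM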
Env fusion inh: HIV envelope-mediated fusion inhibition; HeLa-JRFL Env/CEM21 cell fusion, luciferase; inhibition, % at 12.3 µM; 360,000 compounds, 1.1% hits;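 active = mean replicate inhibition score of at least 50 and every replicate individually at or above 50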;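 note: 0% = plate neutral controls and 100% = maraviroc near 300 nM; one replicate is shown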
PABP polyA inh: blocks human PABP binding to poly(A) RNA; inhibition, % at 35 µM; 290,000 compounds, 1% hits; P11940; fluorescence polarization;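 active = 50% or more with normal probe brightness, or confirmed in later tests; about a fifth of its hits are not listed in these tables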;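 note: calls also rest on retests at 20 µM and on dose response follow-up; controls were probe without protein and protein plus probe with vehicle; some compounds called inactive have numbers as strong as hits; many hits fall short of the cut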
Target sequence (P11940 whole entry, looked up): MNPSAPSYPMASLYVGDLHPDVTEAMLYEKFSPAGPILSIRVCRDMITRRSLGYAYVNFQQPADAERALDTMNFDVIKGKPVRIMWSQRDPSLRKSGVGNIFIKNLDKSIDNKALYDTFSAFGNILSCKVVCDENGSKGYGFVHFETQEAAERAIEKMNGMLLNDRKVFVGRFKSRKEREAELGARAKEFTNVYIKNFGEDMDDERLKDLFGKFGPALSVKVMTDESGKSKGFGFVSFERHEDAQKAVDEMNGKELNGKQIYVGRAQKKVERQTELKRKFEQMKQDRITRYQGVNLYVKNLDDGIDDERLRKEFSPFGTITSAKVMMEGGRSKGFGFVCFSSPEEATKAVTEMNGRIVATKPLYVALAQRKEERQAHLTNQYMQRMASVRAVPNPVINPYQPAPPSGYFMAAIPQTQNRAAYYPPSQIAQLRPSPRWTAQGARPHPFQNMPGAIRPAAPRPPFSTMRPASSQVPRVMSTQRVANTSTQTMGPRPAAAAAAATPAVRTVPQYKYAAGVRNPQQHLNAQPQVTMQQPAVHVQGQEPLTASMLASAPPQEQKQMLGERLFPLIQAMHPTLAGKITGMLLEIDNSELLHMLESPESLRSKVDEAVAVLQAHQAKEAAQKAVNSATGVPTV
CSC inhib: cancer stem cell inhibition | cancer stem cell-like cells viability, luminescence | inhibition, % at 7.5 µM | 300,000 compounds, 1.1% hits;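 active = mean at 75% or more and at least half the replicates too; tested in HMLE shEcad cells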;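 note: 0% = median of negative and 100% = median of positive control wells; the first replicate is given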
UUG fidelity: modulators of start codon recognition fidelity in yeast; AID 602363; activity score, % at 18.7 µM; S. cerevisiae UUG-firefly luciferase reporter, luminescence/redox ratio; 350,000 compounds, 0.13% hits;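 active = replicate mean at a twofold rise or more, about +100% in these data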;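 note: firefly luciferase made from a UUG start codon reports start codon fidelity; reporter light over untreated wells divided by growth signal over untreated wells; some hits fall short of that in this replicate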
MT1-MMP act inh: inhibitors of human MT1-MMP activation; P50281; HT1080 RFP-PRO-GFP cells, GFP/RFP ratio fluorescence, overnight; percent of plate control window, DMSO zero; GFP/RFP ratio change, % at 20 µM; 360,000 compounds, 0.061% hits; AID 651647;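 active = GFP/RFP ratio change of at least 30% with cell ATP level not reduced by more than half and red fluorescence within 50% of control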; note: strong numbers were not always called active
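Material: RFP-PRO-GFP reporter HT1080 cells. Dosing: single-point 20 µM compound, 1% DMSO. Controls: DMSO and RFP-L50D-GFP cell wells. Timing: cells overnight before dosing, compound overnight, 37 °C, 5% CO2. Measure: GFP/RFP fluorescence ratio.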
eIF4H FP inh: inhibitors of RNA binding by human eIF4H | eIF4H fluorescence polarization binding assay | 290,000 compounds, 0.94% hits | inhibition, % at 35 µM;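 active = 50% or more with normal probe brightness, or confirmed in later tests; about a fifth of its hits are not listed in these tables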;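 note: calls also rest on retests at 20 µM and on dose response follow-up; 0% = protein and probe with vehicle and 100% = probe without protein; strong numbers were not always called active; many hits fall short of the cut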
eIF4H FP inh retest: further read-out of eIF4H FP inh, marked with its call; inhibition, %; compound at 20 µM; confirmation average;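 mean of two retest wells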
PABP polyA inh retest: recorded beside PABP polyA inh, whose call it bears; inhibition, %; compound at 20 µM; confirmation repeats;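 mean of two retest wells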
MT1-MMP act inh RFP: recorded beside MT1-MMP act inh, whose call it bears; RFP signal change, %; measured here: RFP expression control read;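 0 = vehicle wells; hits needed this value within 50% of zero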
* = called active by the depositor; i = inactive; nt = no result given; & = joins results of further samples. Not all compounds are listed. The share of hits here may be higher or lower than overall.

SMILES	Rce1 inh	Env fusion inh	PABP polyA inh	CSC inhib	UUG fidelity	MT1-MMP act inh	MT1-MMP act inh RFP	eIF4H FP inh	others
CN(C)S(=O)(=O)c1cccc(NC(=S)Nc2ccc3cn[nH]c3c2)c1	i	7.7	-7.7	-6.4	nt	-0.4	-0.4	-3.0
Cc1cccc2sc(NC(=O)[C@@H]3CCCN3C(=O)c3cccs3)nc12	i	-5.8	-3.3	3.2	nt	-1.2	-0.3	-2.2
CCn1c(SCC(=O)N2CCC(C)CC2)nc2c(c1=O)SCC2	i	5.1	4.0	-1.5	-17.9	-1.9	-0.6	-3.3
COc1ccc(CC(=O)Nc2ccccc2N2CCOCC2)cc1OC	i	16.1	-2.7	-13.5	nt	-7.3	-4.3	-14.5
NC(=O)Cc1ccc(C(=O)c2ccc(F)cc2)s1	i	6.6	5.0	nt	nt	4.3	1.4	-4.0
CNC[C@@H]1OCc2cnnn2CCCC(=O)N([C@H](C)CO)C[C@H]1C	nt	20.7	nt	nt	-7.2	-1.6	-1.7	nt
Cc1c(-c2ccc(Br)cc2)[n+](=O)c2c(n1[O-])CCCCC2	i	10.3	-0.2	-5.4	5.4	0.1	-0.2	-4.1
Cc1cccc(N2C(=O)N3[C@H](c4ccc(Cl)cc4)[C@@H]4C(=O)N(C5CCCCC5)C(=O)[C@@H]4[C@]3(Cc3ccc(Cl)cc3)C2=O)c1	i	nt	-4.4	9.5	-8.3	17.9	-15.3	-10.8
CN(C)c1ccc(-c2nnn(CC(=O)Nc3ccccc3N3CCOCC3)n2)cc1	i	nt	4.5	44.1	5.7	6.1	0.5	-15.4
COc1cccc(NC(=O)CSc2c3c(nc4ccccc24)CCCC3)c1	i	-24.2	-10.7	14.1	nt	-1.4	-0.8	-4.5
OC(c1ccc(F)cc1)c1ncc(-c2cccc(C(F)(F)F)c2)[nH]1 (stereo unspecified)	nt	24.2	nt	nt	-24.0	3.5	-2.3	nt
CC(C)c1ccc(CC(=O)N2CCC2(C)C(=O)Nc2ccccc2)cc1 (stereo unspecified)	nt	9.7	nt	nt	22.8	4.9	-5.8	nt
COc1ccccc1N1CCN(CC(=O)NCc2ccc(Cl)cc2)CC1	i	9.3	-12.3	-12.3	9.3	1.9	-1.4	-2.9
CCCCNC(=O)/C(C#N)=C/c1ccc(C(=O)OC)cc1	i	nt	-11.1	8.0	-4.0	0.6	-0.4	-9.1
Cc1ccc(C(C(=O)NCC2CCCO2)N(C(=O)c2snc(C(N)=O)c2N)c2ccc(F)cc2)o1 (stereo unspecified)	i	15.9	-3.4	-8.0	-5.0	-4.1	-4.2	-1.0
CN(Cc1ccc(OCC(O)CN(C)Cc2ccccc2)cc1)Cc1nccn1C (stereo unspecified)	i	-13.0	0.5	41.1	-11.2	12.0	1.7	2.8
COc1ccc(-c2cc(C(=O)N/N=C/c3cc(OC)c(OC)cc3OC)c3ccccc3n2)cc1	i	11.1	nt	9.9	-16.2	2.2	-2.8	nt
O=C(CCC(=O)Nc1ccccc1)N/N=C/c1ccco1	i	nt	-5.8	-14.5	0.4	2.3	-0.1	22.1
Cc1cc(C)n2nc(C(=O)NCc3ccco3)cc2n1	i	7.9	4.1	0.6	-0.6	-1.1	5.4	5.3
Cc1ccccc1C1C(C#N)=C2NC(=O)c3c(sc4c3CCCCC4)N2C2=C1C(=O)CC(C)(C)C2 (stereo unspecified)	i	nt	31.7	15.4	nt	nt	nt	46.6
Cc1ccc(S(=O)(=O)CCC(=O)N(Cc2nnc(-c3ccc(Cl)cc3)o2)C2CC2)cc1	nt	nt	nt	-5.5	-4.3	-0.8	-2.0	nt
CSCCC(C)N1CCC(Oc2ccc(C(=O)N3CCCC3)cc2)CC1 (stereo unspecified)	i	7.8	3.6	9.7	1.5	-0.5	3.2	-2.2
Cc1ccc(NS(=O)(=O)c2ccc(C)c(C(=O)N3CCN(C)CC3)c2)cc1	i	nt	27.5	-1.3	-6.6	3.5	2.9	-14.0
CCC(CNC(=O)c1c(C)nn(-c2ccccc2)c1Cl)c1ccccc1 (stereo unspecified)	i	2.9	-4.6	62.9	-6.8	nt	nt	15.8
CCCn1c(N)c(N(CCOC)C(=O)C2CCCC2)c(=O)[nH]c1=O	nt	13.0	nt	-6.5	-9.8	-2.4	0.9	nt
Next part:
SMILES	Rce1 inh	Env fusion inh	PABP polyA inh	CSC inhib	UUG fidelity	MT1-MMP act inh	MT1-MMP act inh RFP	eIF4H FP inh	others
OC(c1ccco1)c1nc(-c2ccc(F)c(Cl)c2)cs1 (stereo unspecified)	nt	-26.4	nt	nt	-6.4	-0.1	0.3	nt
O=[N+]([O-])c1cc(NCCO)c(N2CCCCCC2)c2nonc12	i	8.8	5.6	-3.5	-6.6	4.1	-3.0	8.0
CC(=O)c1ccc(Oc2ccc(C(C)=O)cc2)cc1	i	-49.6	-1.3	1.4	-3.7	1.1	-5.6	-1.6
COC(=O)c1ccc(COc2ccccc2/C=C(\C#N)C(=O)Nc2ccc(C)cc2C)cc1	i	-9.5	-0.3	21.6	-1.0	1.0	3.2	-3.6
O=C(NCc1ccco1)C12CC3CC(CC(C3)C1)C2	i	nt	-14.2	5.3	-13.0	1.4	3.5	0.7
Cc1ccc(NC(=O)COc2coc(CN3CCc4ccccc43)cc2=O)c(C)c1	i	nt	nt	-6.3	-10.4	3.6	-3.1	nt
O=C(Nc1ccccc1Cl)O/N=C/c1ccncc1	i	-14.7	nt	12.1	nt	2.5	0.2	nt
O=C(NNC(=O)c1cc2ccccc2oc1=O)c1ccccc1	i	-31.7	3.4	-8.4	-16.3	2.0	3.8	7.3
CCOC(=O)c1cc2c(OC)ccc(OC)c2n1CC(=O)c1ccccc1	i	1.8	2.5	10.9	-21.9	-2.6	-2.3	12.2
CCOC(=O)CC(NS(=O)(=O)c1ccc(NC(C)=O)cc1)c1ccc(OCC)cc1 (stereo unspecified)	i	-24.1	-0.2	nt	-3.2	-2.5	-1.7	-5.4
C[C@@H]1CN([C@H](C)CO)C(=O)CCCn2nncc2CO[C@H]1CN(C)C(=O)NC1CCCCC1	nt	-4.3	nt	nt	-11.2&8.2	-1.0	0.5	nt
COc1ccc(OC)c(-c2csc(NC(=O)COC(=O)c3ccc(NC(=O)CC#N)cc3)n2)c1	nt	nt	nt	-7.9	-14.5	0.2	-1.5	nt
O=C(NNC(=O)C1CCN(S(=O)(=O)c2ccc(Cl)cc2)CC1)c1ccc(Cl)cc1	i	-53.5	2.6	-13.0	-10.6	-7.5	-9.0	3.5
COc1ccc(CC(N)c2csc(Nc3ccccn3)n2)cc1 (stereo unspecified)	nt	18.1	nt	nt	-22.3	0.1	-0.9	nt
CCN(CC)CCNC(=O)c1cccc(NC(=O)C(=O)c2cc(Br)ccc2NC(C)=O)c1	i	1.0	-11.1	-1.8	-1.6	3.8	3.8	-0.1
COc1ccc(CCn2c(N)c(C#N)c3nc4ccccc4nc32)cc1OC	i	nt	29.5	-13.4	-4.7	2.0	8.5	-4.4
C=CCc1c(C)nc(-c2ccccc2)nc1Nc1ccc(O)cc1	i	5.2	10.8	15.9	3.6	15.0	-5.8	-2.7
CN1CCN(S(=O)(=O)c2cccc(C(=O)Nc3sc4c(c3C(N)=O)CCCC4)c2)CC1	i	nt	5.7	1.4	12.5	2.6	-4.4	-7.6
CCCS(=O)(=O)N1CCN(C(=O)c2cccc(OC)c2)CC1	i	-1.0	-9.7	-6.1	8.8	-2.0	-0.4	0.7
CN(c1ccccc1)S(=O)(=O)c1ccccc1Br	nt	-20.1	nt	13.3	-6.1	-0.8	-0.6	nt
Cc1ccc(NC(=O)CCN2CCc3ccccc3C2)cc1	i	-29.4	5.9	-1.3	1.9	-4.8	2.3	9.7
CC12CCCc3c(O)cc(=O)n(c31)-c1ccccc12 (stereo unspecified)	i	8.7	2.5	2.3	-15.3	-0.1	2.1	-7.5
CC(C)c1ccc(NC(=O)c2cccc(NC3=NC4CS(=O)(=O)CC4S3)c2)cc1 (stereo unspecified)	i	14.3	-2.5	nt	-5.8	1.3	0.2	-15.9
O=C(O)/C(=C/c1cccnc1)NC(=O)c1ccccc1	i	nt	1.4	-27.7	nt	-4.5	0.6	5.7
CCN(c1ccc(C)cc1C)S(=O)(=O)c1nnc(NC(=O)c2ccco2)s1	i	-6.6	9.1	14.5	-14.3	9.3	-4.9	-3.0

Grouped by structure, the entries above containing fluorine.
SMILES	Rce1 inh	Env fusion inh	PABP polyA inh	CSC inhib	UUG fidelity	MT1-MMP act inh	MT1-MMP act inh RFP	eIF4H FP inh	others
NC(=O)Cc1ccc(C(=O)c2ccc(F)cc2)s1	i	6.6	5.0	nt	nt	4.3	1.4	-4.0
OC(c1ccc(F)cc1)c1ncc(-c2cccc(C(F)(F)F)c2)[nH]1 (stereo unspecified)	nt	24.2	nt	nt	-24.0	3.5	-2.3	nt
Cc1ccc(C(C(=O)NCC2CCCO2)N(C(=O)c2snc(C(N)=O)c2N)c2ccc(F)cc2)o1 (stereo unspecified)	i	15.9	-3.4	-8.0	-5.0	-4.1	-4.2	-1.0
OC(c1ccco1)c1nc(-c2ccc(F)c(Cl)c2)cs1 (stereo unspecified)	nt	-26.4	nt	nt	-6.4	-0.1	0.3	nt

Continued:
SMILES	Rce1 inh	Env fusion inh	PABP polyA inh	CSC inhib	UUG fidelity	MT1-MMP act inh	MT1-MMP act inh RFP	eIF4H FP inh	others
C/C(N)=C(/C#N)C(=O)CSc1nc2scc(-c3ccccc3)c2c(=O)n1C	i	16.3	54.6	4.0	nt	-12.1	-6.5	6.8	eIF4H FP inh retest=26.6;PABP polyA inh retest=12.6
CCOC(=O)c1cc(-c2ccc(N3CCOCC3)cc2)nn1-c1ccccc1	i	15.8	-14.1	-0.9	nt	-0.3	-4.0	-2.1
CS(=O)(=O)N1CCN(C(=O)c2csc3ccccc23)CC1	i	-1.9	-7.5	-6.7	-5.3	2.3	0.7	-8.9
O=C(c1ccc(Br)cc1)N1CCCC(c2nc(-c3cccs3)no2)C1 (stereo unspecified)	i	12.1	5.7	17.2	nt	0.1	2.3	-3.0
COc1ccc2c(c1)n([O-])c1c([n+]2=O)CCC1	i	nt	21.3	2.1	nt	nt	nt	37.7
O=C1OC(c2ccc(Cl)cc2)=C/C1=C/c1cccnc1	i	13.1	38.9	-9.2	-9.6	-4.4	1.4	1.5
CN(C)c1ccnc2sc3c(=O)n(-c4ccccc4)cnc3c12	i	48.6	3.0	-11.6	-6.9	-11.3	-14.0	-1.7
Cc1cc(C)c2c3c(sc2n1)C(=O)N(c1ccccc1)CC(=O)N3	i	5.0	-0.5	nt	nt	-2.6	-5.5	7.2
Cc1ccc(C(C)C)c(OCCCn2ccnc2C)c1	i	6.5	4.1	nt	-9.7	1.7	1.6	21.2
O=C(CNC(=O)c1ccc(Br)cc1)Nc1ccc2c(c1)CCC2	nt	10.3	nt	-3.0	-13.0	-3.2	2.1	nt

3 records drawn at random from those above, as already listed:
SMILES	Rce1 inh	Env fusion inh	PABP polyA inh	CSC inhib	UUG fidelity	MT1-MMP act inh	MT1-MMP act inh RFP	eIF4H FP inh	others
O=C(CNC(=O)c1ccc(Br)cc1)Nc1ccc2c(c1)CCC2	nt	10.3	nt	-3.0	-13.0	-3.2	2.1	nt
O=C1OC(c2ccc(Cl)cc2)=C/C1=C/c1cccnc1	i	13.1	38.9	-9.2	-9.6	-4.4	1.4	1.5
C/C(N)=C(/C#N)C(=O)CSc1nc2scc(-c3ccccc3)c2c(=O)n1C	i	16.3	54.6	4.0	nt	-12.1	-6.5	6.8	eIF4H FP inh retest=26.6;PABP polyA inh retest=12.6

Screens deposited in PubChem by several laboratories.
